# DUX4 txn inh: DUX4-mediated transcription inhibition. 293T-iDUX4 ZSCAN4-Gaussia luciferase reporter, 24 h; stronger effect = lower value. activity change, negative = inhibition, % (test concentration not listed). actives 0.8% (n = 37,000);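 active = -10% or lower and over 25 points stronger than a control reporter; inconclusive = -10% or lower with a smaller gap; inactive = above -10%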;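 note: 0% = median of neutral control wells and -100% = median of positive control wells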
# DUX4 txn inh difference: recorded beside DUX4 txn inh, whose call it bears; Gaussia minus Italica difference, %; measured here: selective DUX4 reporter inhibition;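 worked out from the two reporters; negative = selective loss of the DUX4 reporter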
# DUX4 txn inh control: further read-out of DUX4 txn inh, marked with its call; activity change, negative = inhibition, %; measured here: Italica tet-on control reporter;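 0 = neutral control and -100 = positive control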
# * marks the source's active call; other numbers are inactive results; ? = inconclusive; nt = not tested or not shown; & = joins results of further samples; ! = not active in a repeat. Not all compounds are listed; count on the stated rates, not on these rows.
# Preview, 9 compounds:
# Order of results – DUX4 txn inh difference, DUX4 txn inh, DUX4 txn inh control
- CC(=O)NC[C@@H]1[C@@H](c2ccc(C3=CCCC3)cc2)[C@H](CO)N1Cc1cccnc1
  0, -5, -4.8
- O=C(C[C@@H]1C[C@H]2c3cc(NC(=O)C4CCC4)ccc3O[C@H]2[C@H](CO)O1)NC1CCCC1
  1, 2, 0.6
- C[C@H]1CN([C@@H](C)CO)C(=O)c2cc(C#CC3CCCC3)cnc2O[C@@H]1CN(C)C(=O)Cc1ccccn1
  -3, 1, 3.8
- O=C(C[C@@H]1C=C[C@H](NC(=O)c2cccnc2)[C@@H](CO)O1)NCc1ccncn1
  2, 2, -0.4
- CCCN1[C@@H]2c3ccc(-c4ccccc4OC)c(=O)n3C[C@@H]2[C@@H](CO)[C@@H]1C(=O)N(C)C
  2, 0, -2.2
- CO[C@H]1CC[C@@H]2CCOc3c(C#N)cccc3C(=O)N(C)C[C@H](c3ccccc3)CC(=O)N(C)C[C@@H]1O2
  27, 1, -26
- c1cncc(-c2ccc(C3[C@@H]4CN(Cc5nccs5)C[C@H]3N4)cc2)c1 (stereo partly specified)
  -44*, -35*!, 9.2*
- CCC(=O)Nc1ccc2c(c1)OC[C@@H](C)N(Cc1ccccc1F)C[C@H](C)[C@H](OC)CN(C)C2=O
  nt, ?, nt
- CNC[C@H]1Oc2ncc(C#CCC3CCCC3)cc2C(=O)N([C@@H](C)CO)C[C@H]1C
  0, 2, 2.2

# The whole of this part, from the first entry:
# Order of results – DUX4 txn inh difference, DUX4 txn inh, DUX4 txn inh control
- CC(=O)NC[C@@H]1[C@@H](c2ccc(C3=CCCC3)cc2)[C@H](CO)N1Cc1cccnc1
  0, -5, -4.8
- O=C(C[C@@H]1C[C@H]2c3cc(NC(=O)C4CCC4)ccc3O[C@H]2[C@H](CO)O1)NC1CCCC1
  1, 2, 0.6
- C[C@H]1CN([C@@H](C)CO)C(=O)c2cc(C#CC3CCCC3)cnc2O[C@@H]1CN(C)C(=O)Cc1ccccn1
  -3, 1, 3.8
- O=C(C[C@@H]1C=C[C@H](NC(=O)c2cccnc2)[C@@H](CO)O1)NCc1ccncn1
  2, 2, -0.4
- CCCN1[C@@H]2c3ccc(-c4ccccc4OC)c(=O)n3C[C@@H]2[C@@H](CO)[C@@H]1C(=O)N(C)C
  2, 0, -2.2
- CO[C@H]1CC[C@@H]2CCOc3c(C#N)cccc3C(=O)N(C)C[C@H](c3ccccc3)CC(=O)N(C)C[C@@H]1O2
  27, 1, -26
- c1cncc(-c2ccc(C3[C@@H]4CN(Cc5nccs5)C[C@H]3N4)cc2)c1 (stereo partly specified)
  -44*, -35*!, 9.2*
- CCC(=O)Nc1ccc2c(c1)OC[C@@H](C)N(Cc1ccccc1F)C[C@H](C)[C@H](OC)CN(C)C2=O
  nt, ?, nt
- CNC[C@H]1Oc2ncc(C#CCC3CCCC3)cc2C(=O)N([C@@H](C)CO)C[C@H]1C
  0, 2, 2.2
- C[C@H]1CN([C@@H](C)CO)C(=O)CCCn2nncc2CO[C@@H]1CN(C)Cc1cccnc1
  0, 0, -0.1
- COc1ccc(-c2ccc3c(c2)[C@H]2[C@H](CCN2C(=O)c2ccccc2F)[C@H](CO)N3C)cc1
  8, -8, -16
- COc1cccc(CN(C)C[C@@H]2OCc3ccccc3-c3c(n(C)c4ccccc34)C(=O)N([C@H](C)CO)C[C@@H]2C)c1
  nt, ?, nt
- C[C@H](NC(=O)C[C@@H]1C[C@@H]2c3cc(N(C)C)ccc3O[C@@H]2[C@H](CO)O1)c1ccccc1
  6, 9, 3.4
- CCCNC(=O)N1[C@@H](CO)[C@@H](c2ccc(-c3ccccc3)cc2)[C@@H]1CNC(C)=O
  -3, -4, -1.2
- O=C(C[C@@H]1C=C[C@H](NC(=O)C2CCC2)[C@@H](CO)O1)NCCCN1CCOCC1
  7, 8, 1.4
- C[C@@H]1CN([C@@H](C)CO)C(=O)CCCn2nncc2CO[C@H]1CN(C)C(=O)Nc1cccc(C(F)(F)F)c1
  1, 3, 1.8
- COc1cccc(C#Cc2ccc3c(c2)[C@@H]2[C@@H](CCN2C(=O)CC2CC2)[C@H](CO)N3)c1
  -2, 29, 31
- O=C(C[C@H]1CC[C@@H]2[C@H](COC[C@@H](O)CN2Cc2nccs2)O1)NCc1ccccc1Cl
  6, 4, -1.8
- CCN1[C@H](C(=O)NC2Cc3ccccc3C2)[C@@H](CO)[C@@H]2Cn3c(cccc3=O)[C@@H]21
  -2, 3, 4.9
- O=C1CN(Cc2ccc(F)cc2)C[C@@H]2[C@@H](c3ccc(Br)cc3)[C@@H](CO)N12
  -2, 3, 5.2
- COc1ccccc1S(=O)(=O)N1C[C@@H]2N[C@H](C1)C2c1ccc(-c2ccccc2C)cc1 (stereo partly specified)
  -32*!, -42*!, -10*!
- CCCC#Cc1ccc([C@H]2[C@@H](CO)N3C(=O)CN(S(=O)(=O)Cc4ccccc4)C[C@@H]23)cc1
  0, -2, -1.2
- C[C@H]1CN([C@@H](C)CO)C(=O)CCCn2nncc2CO[C@H]1CN(C)Cc1ccc2cccnc2c1
  4, 1, -3.3
- COc1cccc(-c2ccc([C@H]3[C@H](CO)N4C(=O)CN(C(=O)C5CCOCC5)C[C@@H]34)cc2)c1
  -6, 4, 9.8
- C[C@H]1CN([C@@H](C)CO)C(=O)c2c(c3ccccc3n2C)-c2ccccc2CO[C@@H]1CN(C)Cc1ccccc1C(F)(F)F
  -29*, -30*, -0.4*
- O=C(C[C@@H]1CC[C@@H]2[C@H](COC[C@@H](O)CN2Cc2ccc(C(F)(F)F)cc2)O1)N1CCc2ccccc2C1
  nt, ?, nt
- CN(C)C(=O)c1cccc(-c2ccc([C@H]3[C@@H](C#N)N(C(=O)C4CC4)[C@H]3CO)cc2)c1
  5, -1, -5.8
- CCCN(C)C[C@@H]1Oc2cc(C#CCc3ccccc3)ccc2S(=O)(=O)N([C@H](C)CO)C[C@@H]1C
  -2, 4, 5.5
- COc1ccc(CNC(=O)C[C@@H]2CC[C@H](NC(=O)CN(C)C)[C@@H](CO)O2)cc1
  4, 3, -1.8
- CN1CCN(C(=O)C[C@@H]2CC[C@@H]3[C@H](COC[C@H](O)CN3C(=O)C3CCOCC3)O2)CC1
  12, 11, -1.2
- C/C=C/c1ccccc1[C@H]1[C@H](C#N)N(c2nc(CC)cs2)[C@H]1CO
  0, -8, -7.8
- COCC(=O)Nc1ccc2c(c1)C(=O)N(C)[C@@H]1CC[C@@H](CC(=O)NCc3ccc(OC)cc3)O[C@@H]1CO2
  2, 4, 2.0
- C[C@@H]1CN([C@@H](C)CO)C(=O)Cc2cc(N(C)C)ccc2O[C@H]1CN(C)Cc1ccc(-c2ccccc2)cc1
  -3, -3, 0.4
- CCNC(=O)C[C@@H]1CC[C@@H](NC(=O)C2CC2)[C@H](CO)O1
  8, 2, -6.4
- COc1cccc(S(=O)(=O)N(C)C[C@@H]2OCc3cnnn3CCCC(=O)N([C@@H](C)CO)C[C@H]2C)c1
  0, 5, 4.7
- CC(=O)N1[C@@H]2Cn3c(ccc(C4=CCCC4)c3=O)[C@H]1[C@@H](C(=O)N[C@H](C)c1ccccc1)[C@@H]2CO
  4, 4, 0.0
- COc1ccccc1-c1ccccc1[C@H]1[C@@H](CO)N(C(=O)CN(C)C)[C@H]1C#N
  0, 10, 9.4
- CC(C)(O)C#Cc1ccc([C@@H]2[C@H]3CN(C(=O)c4cccnc4)CCCCN3[C@H]2CO)cc1
  4, 7, 2.8
- C[C@H](CO)N1C[C@H](C)[C@H](CN(C)C(=O)Nc2ccc(F)cc2)Oc2ncccc2C1=O
  2, 2, -0.7
- CCS(=O)(=O)N1CC2(CN(Cc3ccc4c(c3)OCO4)[C@@H](CO)c3[nH]c4cc(OC)ccc4c32)C1
  -7, -8, -1.3
- CCCC#Cc1ccc([C@@H]2[C@H](CO)N3CCCCN(S(=O)(=O)Cc4ccccc4)C[C@@H]23)cc1
  1, -9, -9.5
- Cc1cc(C(=O)Nc2ccc3c(c2)C(=O)N(C)[C@H]2CC[C@H](CC(=O)O)O[C@@H]2CO3)no1
  -2, -2, -0.3
- CS(=O)(=O)Nc1ccc2c(c1)[C@H]1C[C@@H](CC(=O)NCc3ccncc3)O[C@@H](CO)[C@H]1O2
  -2, 5, 7.7
- COc1ccc2c3c(n(C)c2c1)[C@@H](CO)N(CC1CCOCC1)CC31CCN(C(=O)Nc2ccccc2)CC1
  -9, -4, 4.6
- O=C(C[C@H]1C[C@H]2c3cc(NC(=O)C4CCC4)ccc3O[C@H]2[C@@H](CO)O1)NC1CCCC1
  -2, -1, 1.5
- C[C@@H]1CN([C@@H](C)CO)C(=O)c2ccccc2-c2ccccc2CO[C@H]1CN(C)S(=O)(=O)c1ccc(C(F)(F)F)cc1
  -14, -4, 9.6
- COc1cccc(S(=O)(=O)Nc2ccc3c(c2)C(=O)N(C)C[C@H](OC)[C@H](C)CN(Cc2ccccc2F)[C@H](C)CO3)c1
  nt, ?, nt
- N#C[C@@H]1[C@H](c2ccccc2C2=CCCCC2)[C@H](CO)N1C(=O)Cc1ccncc1
  nt, ?, nt
- Cc1noc(C)c1NC(=O)N(C)C[C@@H]1Oc2ccc(NC(=O)CCN3CCOCC3)cc2CC(=O)N([C@H](C)CO)C[C@@H]1C
  2, 4, 1.7
- N[C@H]1CC[C@@H](CCn2cc(-c3ccccn3)nn2)O[C@H]1CO
  2, 4, 1.8
- CCCN(C)C[C@@H]1OCCCC[C@H](C)Oc2ccc(N(C)C)cc2C(=O)N([C@H](C)CO)C[C@@H]1C
  1, 0, -1.3
- N#C[C@@H]1[C@H](c2ccc(C3=CCCC3)cc2)[C@@H](CO)N1C(=O)C1CCC1
  -1, 0, 0.4
- O=C(C[C@H]1CC[C@@H](NC(=O)NC2CCCCC2)[C@@H](CO)O1)NCc1ccccc1
  0, 0, -0.2
- O=C(c1ccc(F)cc1)N1CC(=O)N2[C@H](CO)[C@@H](c3ccc(C#CCC4CCCC4)cc3)[C@@H]2C1
  nt, ?, nt
- CO[C@H]1CN(C)C(=O)c2cc(NC(=O)CC(F)(F)F)ccc2OC[C@H](C)NC[C@@H]1C
  -3, -1, 1.7
- C[C@@H]1CN([C@H](C)CO)C(=O)c2cc(C#Cc3ccccc3)cnc2O[C@H]1CN(C)C(=O)c1ccccc1
  -4, -4, 0.1
- COc1cccc(C(=O)N2C[C@H]3[C@@H](c4ccccc42)[C@@H](CO)N3Cc2ccccc2F)c1
  -4, -1, 3.6
- COc1cccc(CN2[C@@H](CO)[C@@H](c3ccccc3)C23CN(Cc2ccccc2OC)C3)c1
  -26*, -38*, -12*
- Cc1ccc(S(=O)(=O)Nc2ccc3c(c2)CC(=O)N([C@H](C)CO)C[C@H](C)[C@H](CN(C)C(=O)Nc2ccc4c(c2)OCO4)O3)cc1
  -1, 1, 1.9
- COC(=O)[C@@H]1[C@@H](CO)[C@@H]2Cn3c(ccc(C4=CCCCC4)c3=O)[C@@H]2N1CC1CCCCC1
  nt, ?, nt

# Carrying on:
# Order of results – DUX4 txn inh difference, DUX4 txn inh, DUX4 txn inh control
- COCC(=O)N(C[C@@H]1N[C@@H](CO)[C@H]1c1ccc(C2=CCCCC2)cc1)C(C)C
  4, -1, -5.1
- CN1CCN(C(=O)C[C@@H]2CC[C@@H]3[C@H](COC[C@H](O)CN3C(=O)Cc3ccccc3)O2)CC1
  3, 5, 2.2
- C[C@@H]1CCCCO[C@H](CN(C)C(=O)Nc2ccc(C(F)(F)F)cc2)[C@@H](C)CN([C@H](C)CO)C(=O)c2cc(NS(=O)(=O)c3ccc(Cl)cc3)ccc2O1
  -1, 2, 3.5
- COC(=O)C[C@H]1CC[C@@H]2[C@H](COc3ccc(NC(=O)NCc4ccccc4)cc3C(=O)N2C)O1
  3, 0, -2.2
- COc1ccc([C@H]2C/C=C\C[C@@H](c3cccc(Cl)c3)NC(=O)[C@H](c3ccccc3)CC(=O)N2)c(OC)c1
  -1, -1, 0.3
- CN1[C@H](C(=O)NC2CCCCC2)[C@@H](CO)[C@@H]2Cn3c(ccc(-c4cccc(F)c4)c3=O)[C@@H]21
  -2, 2, 3.5
- CN1C(=O)c2cc(NC(=O)c3ccc(F)c(F)c3)ccc2OC[C@@H]2O[C@H](CC(=O)N[C@@H]3CCN(Cc4ccccc4)C3)CC[C@@H]21
  2&-4, 1&-3, -0.8&1.8
- O=C(NC1CCCC1)[C@@H]1[C@@H](CO)[C@@H]2Cn3c(cccc3=O)[C@H]1N2CC1CCCC1
  -1, 1, 1.6
- O=C(c1cccc(F)c1)N1CC2(C1)[C@@H](c1ccccc1)[C@@H](CO)N2C(=O)C1CCOCC1
  6, 7, 0.7
- COc1ccccc1NC(=O)N[C@@H]1CC[C@H](CC(=O)N[C@H](C)c2ccccc2)O[C@@H]1CO
  -1, 4, 5.5
- COc1ccc(S(=O)(=O)Nc2ccc3c(c2)C(=O)N([C@H](C)CO)C[C@@H](C)[C@@H](CN(C)C(=O)CCC(F)(F)F)OCCCC[C@@H](C)O3)cc1
  -5, -4, 1.7
- CN(C)C(=O)c1cccc(-c2ccccc2[C@H]2[C@@H](CO)N(C(=O)C3CCC3)[C@H]2C#N)c1
  2, 5, 3.0
- COCC(=O)N1[C@H](C(=O)NCc2ccccc2F)[C@@H](CO)[C@@H]2Cn3c(cccc3=O)[C@@H]21
  0, -1, -0.6
- COc1ccc(S(=O)(=O)Nc2ccc3c(c2)C(=O)N([C@@H](C)CO)C[C@H](C)[C@H](CN(C)C(=O)Nc2cccc4ccccc24)OCCCC[C@H](C)O3)cc1
  -5, 3, 7.6
- CCN1CC(=O)N2[C@H](CO)[C@@H](c3ccc(-c4cccnc4)cc3)[C@H]2C1
  5, 6, 0.0

# Screening results deposited in PubChem BioAssay by Broad Institute.
